# Source: PubChem BioAssay
# RE007 growth inh: less growth of the S. pombe RE007 Vpr strain | S. pombe RE007 Vpr strain, BacTiter-Glo ATP luminescence, 24 h; control for the full effect not named in the record | Potency, µM (series often up to 92.2 µM), without a hit: at the highest dose activity change, negative = less growth | AID 651644 | 360,000 tested, 0.21% active; active = well fitted falling curve with a large enough effect; inconclusive = small, poorly fitted or top-dose-only effect; inactive = no such curve, though single readings can be large or run the other way;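 note: % is set by controls: 0 for no effect and ±100 for the full control effect; nearly all actives have a fitted effect of over 50% in size; the assay follows cell death caused by Vpr and the record does not say whether a fall means rescue or toxicity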
#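 Fission yeast strain RE007, carrying one chromosomally integrated HIV-1 vpr copy, was seeded at OD 0.01 in PMG+AL medium with 23 nL pinned compound. After 24 h at 30 °C and 99% humidity, viability was read by BacTiter-Glo luminescence.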
# MARV entry inh: Marburg virus entry inhibition | 300,000 tested, 1.8% active | Potency, µM (titrated, usually from 37.8 µM), inactives show at the top dose activity change, negative = inhibition, usual class: inhibitors | Marburg virus pseudotyped entry inhibition, cell reporter; control for the full effect not named in the record; about a third of the inactives were read at about 46 µM; active = well fitted inhibition curve with a large enough effect; inconclusive = small, poorly fitted or top-dose-only effect, or effect the other way; inactive = flat fitted curve, though single readings scatter; tested in HEK293 cells; about a fifth of its hits are not listed in these tables; note: % is set by controls: 0 for no effect and ±100 for the full control effect; luciferase read-out
# Lassa entry inh: blocks Lassa virus binding to or entry into cells. Potency, µM (top dose mostly 37.9 µM), for inactives: at the top dose activity change, negative = inhibition, actives largely listed as inhibitors. Lassa virus pseudotype entry inhibition, cell reporter; control for the full effect not named in the record. AID 540256. 300,000 tested, 1.2% active; active means well fitted inhibition curve with a large enough effect; inconclusive means small, poorly fitted or top-dose-only effect, or effect the other way; inactive means flat fitted curve, though single readings scatter; tested in HEK293 cells; note: % is set by controls: 0 for no effect and ±100 for the full control effect; nearly all actives have a fitted effect of over 50% in size; luciferase read-out
# Cruzain inh Det: inhibitors of Trypanosoma cruzi cruzain with detergent | P25779 | purified cruzain, Z-FR-AMC fluorescence, 0.01% Triton | Potency, µM, without a hit: max response, negative = inhibition, actives largely listed as inhibitors | 200,000 tested, 0.43% active | AID 1478; active = well fitted curve in the direction sought with a large enough effect; inconclusive = small, poorly fitted or top-dose-only effect, or another doubt; inactive = no such curve, though single readings can be large; an effect the other way counts as inactive or inconclusive;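 note: plate controls were neutral wells for no effect and buffer without enzyme for full effect; nearly all actives have a fitted effect of over 40% in size; top concentration of the series not given in the record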
# Target sequence (P25779 123-467 limits assumed): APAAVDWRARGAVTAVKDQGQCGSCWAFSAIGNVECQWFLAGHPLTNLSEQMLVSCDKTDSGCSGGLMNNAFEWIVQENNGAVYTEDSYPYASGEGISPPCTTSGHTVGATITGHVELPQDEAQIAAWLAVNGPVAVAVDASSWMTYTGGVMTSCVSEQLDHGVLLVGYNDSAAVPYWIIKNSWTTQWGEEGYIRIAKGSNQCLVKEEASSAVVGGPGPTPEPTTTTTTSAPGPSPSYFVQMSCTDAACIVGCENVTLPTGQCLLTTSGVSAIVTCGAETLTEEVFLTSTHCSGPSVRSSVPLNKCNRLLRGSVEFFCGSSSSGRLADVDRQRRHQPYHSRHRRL
#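 Z-FR-AMC hydrolysis (2 uM substrate) by cruzain (1.5 nM) monitored kinetically at ex 360/em 450 nm after 15 min room-temperature compound exposure; 0.01% Triton X-100, pH 5.5, 5 mM DTT.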
# Cruzain noTriton: blocks cruzain activity in detergent-free assay; P25779; purified cruzain, Z-FR-AMC fluorescence, no detergent; Potency, µM, for inactives: max response, negative = inhibition, hits mostly inhibitors; 200,000 tested, 2.3% active; active = well fitted curve in the direction sought with a large enough effect; inconclusive = small, poorly fitted or top-dose-only effect, or another doubt; inactive = no such curve, though single readings can be large; an effect the other way counts as inactive or inconclusive;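 note: plate controls were enzyme without inhibitor for no effect and buffer without enzyme for full effect; nearly all actives have a fitted effect of over 40% in size; top concentration of the series not given in the record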
#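 Detergent-free condition (0.00005% Triton X-100) in acetate buffer pH 5.5 with DTT. 1.5 nM enzyme and compound were pre-mixed 15 min, then 2 uM Z-FR-AMC substrate added; reaction progress from fluorescence change between first and third reads (60 s).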
# StopGo reporter: FMDV 2A StopGo reporter, luciferase signal; Potency, µM (doses to about 57.9 µM), for the others: at the top dose signal change, negative = less light; human cells with a luciferase reporter of 2A StopGo recoding; control for the full effect not named in the record; 410,000 tested, 1.2% active; active = well fitted falling curve with a large enough effect; inconclusive = small, poorly fitted or top-dose-only effect; inactive = no such curve, though single readings can be large or run the other way; tested in HEK293T cells; note: % is set by controls: 0 for no effect and ±100 for the full control effect; nearly all actives have a fitted effect of over 45% in size; luciferase light after 4 h
# SARS PLpro yeast: blocks SARS-CoV papain-like protease in a yeast assay | S. cerevisiae expressing SARS-CoV PLpro, growth rescue; control for the full effect not named in the record | Potency, µM (titrated, usually from 32.9 µM), for inactives: top-dose activity, positive = growth rescue | 330,000 tested, 0.19% active; note: 0% is about no effect; nearly all actives have a fitted effect of over 55% in size; growth read by luminescence after 48 h
# NS1 inh: inhibitors of influenza NS1 protein function; S. cerevisiae slowed by influenza A NS1, growth recovery by OD600; Potency, µM (top dose mostly 46.1 µM), without a hit: at the top dose activity, positive = more growth; 270,000 tested, 0.4% active; AID 2326; note: actives are rising curves; nearly all actives have a fitted effect of over 50% in size
#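 In this qHTS, NS1 from influenza A is expressed in budding yeast, where it slows growth. Cells are switched from glucose to 2% galactose medium (pH 6.0, -URA), treated with compound, and growth recovery is read at OD600.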
# The depositor's hits bear a star; ? = inconclusive; nt = no result given; [ ] = another dose, or the depositor's remark. Unless noted, calls come from the whole dose curve; as a rule, active means well fitted rising curve with a large enough effect; inconclusive means small, poorly fitted or top-dose-only effect; inactive means no such curve, though single readings can be large or run the other way. Potency is the fitted concentration of half-maximal effect.
SMILES,RE007 growth inh,MARV entry inh,Lassa entry inh,Cruzain inh Det,Cruzain noTriton,StopGo reporter,SARS PLpro yeast,NS1 inh
O=C(O)c1cccc(-c2ccc(/C=N/NC(=O)C3COc4ccccc4O3)o2)c1 (stereo unspecified),-18%,4%[46.1 µM],-9%,nt,nt,31%[activator],0%,-5%
Cc1nc2ccccc2c(=O)n1-c1ccc(NS(=O)(=O)c2ccc(F)cc2)cc1,3%,7%,-17%,nt,nt,-9%,-3%,nt
O=C(CCC(=O)N1CCN(c2ccc(Cl)c(Cl)c2)CC1)c1ccccc1,-15%,nt,nt,nt,nt,?,-12%,-10%
O=C1c2ccccc2NC(c2ccc3c(c2)OCCO3)N1c1ccc2c(c1)OCCO2 (stereo unspecified),-22%,8.9µM*,?,-7.3%,-15%,-12%,?,-1%
COc1ccccc1C(=O)NCc1nc2cccnc2n1Cc1ccc(F)cc1,nt,nt,-10%[46.1 µM],-1.0%,4%,-15%,nt,nt
Oc1ccc(Nc2ccc3ccccc3c2)cc1,?,-8%,-29%,nt,nt,60%[activator],nt,nt
O=S(=O)(c1ccc(-c2cnc(C3CC3)o2)cc1)N1CCN(c2ccc(F)cc2)CC1,nt,nt,7.9µM*,-6.0%,?,0%,nt,nt
CCOC(=O)c1c(-c2ccc(C)cc2)csc1NC(=O)CCN1CC(C)OC(C)C1 (stereo unspecified),3%,?,?,-9.5%,?,28µM*,-60%,-26%
O=C(NCCS(=O)(=O)NCc1ccc2c(c1)OCO2)c1ccccc1,-1%,?,12%,nt,nt,8%,4%,nt
CN(C)c1ccc(CN(CC2CCCO2)C(=O)COc2ccccc2Cl)cc1 (stereo unspecified),nt,-13%[46.1 µM],?,-2.6%,5%,-16%,nt,nt
COc1ccc(/C=N/NC(=O)C(C)Sc2ccccn2)cc1[N+](=O)[O-] (stereo unspecified),6%,-3%[46.1 µM],-14%[46.1 µM],nt,nt,-11%,-2%,nt
O=C(CC1CCC1)NC(c1ccccc1)c1ccccc1,-20%,?,-12%[46.1 µM],nt,nt,-13%,-2%,2%
COc1cc(C#N)c(NC(=O)CN2CCN(CCO)CC2)cc1OC,-8%,0%[46.1 µM],-11%,nt,nt,9%,-1%,-2%
CN(C)S(=O)(=O)c1ccc(C(=O)Nc2nnc(SCc3cccc4ccccc34)s2)cc1,1%,-5%,-1%,0.1%,?,-7%,11%,25%
Cc1ccc(CNC(=O)CSc2nc3c(sc4ccccc43)c(=O)n2CCCOC(C)C)cc1,nt,nt,-10%[46.1 µM],1.0%,-5%,-4%,nt,nt
CCOc1ccc(OCc2ccc(C(=O)NCc3ccncc3)o2)cc1,13%,0%,22%,6.4%,6%,nt,-1%,-2%
CSc1cccc(NC(=O)c2[nH]c(C)c(C(C)=O)c2C)c1,10%,?,?,nt,nt,35%[activator],-9%,-7%
CC1=C(C(=O)OCc2ccccc2)C(c2ccc([N+](=O)[O-])cc2)NC(=O)N1CCCC(=O)O (stereo unspecified),-7%,nt,nt,nt,nt,-19%,-4%,3%
COc1cc(/C=C2\NC(=S)N(C)C2=O)ccc1OCc1ccccc1F,-15%,nt,nt,nt,nt,3%,0%,1%
COc1ccc(CNC(=O)Cn2ccc3cc(S(=O)(=O)N4CCCCCC4)ccc32)c(OC)c1,nt,nt,?,-5.9%,-16%,-5%,nt,nt
CC1CCN(CC(=O)c2cccs2)CC1,-25%,8%,17%,nt,nt,62%[activator],0%,0%
COc1cccc(N2CCN(c3ccc4nnc(CCC(=O)Nc5ccc(F)cc5)n4n3)CC2)c1,9%,27%[46.1 µM],?,nt,nt,5%,-1%,8%
O=C(CCN1C(=O)C2CC=C(Cl)CC2C1=O)N1CCCCC1 (stereo unspecified),4%,19%,-3%,4.0%,-1%,10%,0%,?
O=C(O)Cc1ccc(C(=O)c2ccc(Cl)cc2)s1,-12%,11%,14%,3.0%,0%,16%,8%,-8%
CC(C)(C)c1cc(C(=O)NNc2ccc(OC(F)(F)F)cc2)n(Cc2ccccc2)n1,33%,?,?,nt,nt,?,-1%,-41%
CCN(CC)S(=O)(=O)c1ccc(Nc2ccc(-c3ccc4c(c3)OCCO4)nn2)cc1,-8%,-6%,?,2.7%,6%,20%,5%,5%
O=[N+]([O-])c1cc(/C=N/NC(=S)Nc2ccccc2Cl)ccc1Cl,-4%,8.9µM*,?,nt,nt,-18%,13%,nt
O=C(CSc1nnc2ccccn12)NCCN1C(=O)CSC1=O,-4%,1%,13%,3.0%,-12%,-9%,5%,-13%
Cc1c(C)n(C(=O)CN2CCC(C(N)=O)CC2)c2ccccc12,-6%,11%[46.1 µM],-9%,0.8%,-5%,-22%,nt,-5%
O=C(O)CCC(=O)NNC(=O)c1ccc([N+](=O)[O-])cc1,-2%,nt,nt,nt,nt,-14%,-1%,-66%
CCOC(=O)c1c(-c2ccccc2)csc1NC(=O)CSc1nnc(C)s1,-3%,?,?,-5.2%,24%,?,-15%,0%
CCOC(=O)c1sc2nc(C)nc(N3CCN(S(=O)(=O)c4ccccc4)CC3)c2c1C,-7%,?,?,nt,nt,?,13%,nt
N#Cc1c[nH]n2c(=O)c3c(nc12)CCC3,-3%,-10%[46.1 µM],12%[46.1 µM],nt,nt,-20%,0%,0%
CC(=O)c1c(C)[nH]c(C(=O)COC(=O)c2cc(S(=O)(=O)N(C)c3ccccc3)ccc2Cl)c1C,1%,-2%,?,-7.9%,-15%,0%,22%,5%
Cn1c(Cl)cnc1C(O)(c1ccccc1)c1ccccc1,-13%,nt,nt,nt,nt,-17%,0%,6%
Cc1nc(Nc2cccc(O)c2)c2oc3ccccc3c2n1,-2%,nt,nt,nt,nt,-23%,0%,1%
NC(N)=Nc1nc(CCN2C(=O)c3ccccc3C2=O)cs1,-12%,15%,11%,?,?,-17%,17%,10%
O=[N+]([O-])c1ccc(/C=N/NC(=S)Nc2ccccc2)o1,-17%,24%,14%,-14%,-10%,-4%,-94%,-9%
CN(C)S(=O)(=O)c1cccc(-c2csc(=Nc3ccccc3)n2CCCN2CCOCC2)c1,1%,nt,nt,nt,nt,-9%,0%,-11%
Cc1c(C)n(Cc2ccccc2)c2ccc(C(=O)NCC(C)c3ccccc3)cc12 (stereo unspecified),nt,nt,-28%[46.1 µM],0.5%,?,11%,nt,nt
CC(=O)c1cccc(S(=O)(=O)N2CCC(C(=O)Oc3ccc(-c4nnco4)cc3)CC2)c1,3%,3%[46.1 µM],0%[46.1 µM],nt,nt,19%,15%,nt
CCn1nc(C)c(Br)c1-c1nc(-c2ccc(C)cc2)no1,2%,-1%[14.2 µM],0%,nt,nt,47%[activator],0%,1%
O=C(NCc1cccs1)C(=O)NCC1OCCCN1S(=O)(=O)c1ccc(F)cc1 (stereo unspecified),20%,5%,-11%,-1.2%,-18%,-6%,6%,7%
COc1cc(C(=O)OC(C)C(=O)Nc2ccc3c(c2)OCO3)ccc1OCc1c(C)noc1C (stereo unspecified),-2%,-2%,19%,3.3%,?,-19%,8%,0%
Cc1ccc(CNC(=O)Cn2nc(N3CCN(c4ccccc4)CC3)ccc2=O)cc1,nt,nt,-4%[46.1 µM],0.9%,-10%,-25%,nt,nt
N#CC(c1nc2ccccc2nc1OCCO)S(=O)(=O)c1ccccc1 (stereo unspecified),11%,nt,nt,nt,nt,-10%,0%,4%
Cc1ccc(/C=N/n2c(C)nnc2C)o1,-1%,-4%,4%,-6.3%,-7%,10%,-18%,7%
Nn1c(SCc2cccc(Br)c2)nnc1-c1ccncc1,5%,-3%[46.1 µM],10%,nt,nt,-6%,0%,-6%
O=C(Nc1ccccc1O)c1ccc(C(=O)c2ccccc2)o1,-5%,0%,?,nt,nt,38%[activator],-7%,-13%
Cc1cc(C=O)c(C)n1-c1cc(C(F)(F)F)ccc1N1CCOCC1,-4%,?,?,4.8%,?,0%,nt,-60%
Cc1ccc(-c2n[nH]c(=O)c3ccccc23)cc1N,-8%,2%,-6%,-4.1%,-10%,-20%,-2%,4%
Cc1nn(CC(=O)N2CCOCC2)c(=O)c2c1sc1ccccc12,-4%,?,15%[46.1 µM],nt,nt,5%,?,1%
COc1ccc(NC(=O)c2ccc(F)c(F)c2)c2ccccc12,9%,5%[46.1 µM],4%,nt,nt,11%,-19%,-23%
CCOc1cccc2sc(NC(=O)c3ccc(Br)s3)nc12,-2%,nt,nt,-4.9%,?,0%,3%,1%
COc1ccc(/C=C(/NC(=O)c2ccco2)C(=O)N2CCCC2=O)cc1,19%,1%[46.1 µM],-12%[46.1 µM],nt,nt,-2%,0%,nt
Cc1cc(C)n(-c2ccc(C(=O)Nc3sccc3C(N)=O)cc2)n1,0%,?,?,-6.2%,-11%,-30%,-10%,-16%
Cc1cc(NCCCO)n2nc(-c3cccs3)cc2n1,-15%,?,-8%,nt,nt,8%,-1%,0%
COC(=O)c1ccccc1NC1=C/C(=N\S(=O)(=O)c2ccc(C(=O)O)cc2)c2ccccc2C1=O,?,?,?,nt,nt,?,-10%,-17%
CCOc1ccc(C=NNC(=O)c2cccc3ccccc23)cc1OCC,6%,-18%,-2%[46.1 µM],nt,nt,?,nt,nt
CSC(=NC#N)N1CCN(c2cccc(Cl)c2)CC1,14%,9%,5%,2.1%,10%,-20%,-11%,-59%
# Carrying on:
SMILES,RE007 growth inh,MARV entry inh,Lassa entry inh,Cruzain inh Det,Cruzain noTriton,StopGo reporter,SARS PLpro yeast,NS1 inh
CSC(=NC(C)c1ccccc1)NS(=O)(=O)c1cccs1 (stereo unspecified),nt,-7%,1%,-5.3%,0%,0%,-20%,-8%
CCN1CCN(CCCNC(=O)C2CCN(c3nnc(-n4cccc4)s3)CC2)CC1,0%,nt,nt,nt,nt,-15%,-8%,-5%
COC(=O)c1ccc(CSc2nnc(NC(C)C)s2)cc1,-7%,?,?,-4.3%,6%,8%,3%,-17%
Cc1cccc(Nc2ncnc3c2cnn3C)c1C,nt,nt,-2%[46.1 µM],0.9%,-3%,-12%,nt,nt
Cc1ccc(C(=O)O)cc1NC(=O)Nc1ccc2c(c1)OCO2,0%,?,21%[46.1 µM],nt,nt,44%[activator],-3%,nt
COc1ccc(NC(=O)CCc2c(C)nc3nc(CNC(=O)c4cccc(F)c4)nn3c2C)cc1OC,9%,21%[46.1 µM],?,nt,nt,-9%,3%,-8%
CCN(CC)CC(C)(C)NS(=O)(=O)c1ccc(Cl)cc1,-8%,-4%,0%,2.1%,-4%,nt,1%,6%
